Assay outcomes from PubChem BioAssay.
NPR1 antag – Natriuretic polypeptide receptor (hNpr1) antagonism - Primary qHTS. Atrial natriuretic peptide receptor 1 (Homo sapiens), P16066. HEK293 hNpr1 GloSensor cGMP, ANP-stimulated luminescence. Potency, µM (doses to about 46.3 µM), inactives show top-dose activity change, negative = inhibition, usual class: inhibitors. hit rate 1.6% among 76,000; active = well fitted inhibition curve with a large enough effect; inconclusive = small, poorly fitted or top-dose-only effect; inactive = no such curve, though single readings can be large or run the other way;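 also: nearly all actives have a fitted effect of over 60% in size; nearly all hits also lower the signal before the agonist is added; a reference antagonist and vehicle were the controls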
Target sequence (P16066 whole entry, looked up): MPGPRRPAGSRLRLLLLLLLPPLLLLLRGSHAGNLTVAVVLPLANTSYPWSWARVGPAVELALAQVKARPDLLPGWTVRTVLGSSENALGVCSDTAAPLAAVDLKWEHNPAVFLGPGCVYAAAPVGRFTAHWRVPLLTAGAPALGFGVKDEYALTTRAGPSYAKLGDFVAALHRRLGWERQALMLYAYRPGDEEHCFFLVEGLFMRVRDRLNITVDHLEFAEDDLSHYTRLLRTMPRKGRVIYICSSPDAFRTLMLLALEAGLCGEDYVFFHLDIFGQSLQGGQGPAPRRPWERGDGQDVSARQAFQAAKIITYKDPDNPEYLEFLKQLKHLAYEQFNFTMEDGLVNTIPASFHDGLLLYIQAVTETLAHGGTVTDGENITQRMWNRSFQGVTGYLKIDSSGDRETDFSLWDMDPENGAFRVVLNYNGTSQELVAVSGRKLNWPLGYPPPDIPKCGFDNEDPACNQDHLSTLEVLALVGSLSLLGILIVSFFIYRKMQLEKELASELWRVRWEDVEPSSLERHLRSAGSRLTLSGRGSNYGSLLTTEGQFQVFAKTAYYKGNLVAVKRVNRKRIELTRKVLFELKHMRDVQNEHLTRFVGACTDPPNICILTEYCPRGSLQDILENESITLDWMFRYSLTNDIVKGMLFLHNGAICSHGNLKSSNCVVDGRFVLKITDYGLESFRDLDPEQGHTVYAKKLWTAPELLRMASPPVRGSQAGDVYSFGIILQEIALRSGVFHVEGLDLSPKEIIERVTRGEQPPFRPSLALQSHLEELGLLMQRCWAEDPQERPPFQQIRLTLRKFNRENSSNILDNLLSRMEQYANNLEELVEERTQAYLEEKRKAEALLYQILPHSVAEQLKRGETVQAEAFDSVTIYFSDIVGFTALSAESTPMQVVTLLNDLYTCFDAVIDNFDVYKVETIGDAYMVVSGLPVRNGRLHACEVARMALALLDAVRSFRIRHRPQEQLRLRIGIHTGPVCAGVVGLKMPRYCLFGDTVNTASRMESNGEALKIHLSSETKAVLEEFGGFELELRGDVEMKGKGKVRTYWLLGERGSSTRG
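HEK293 cells stably expressing human Npr1 and cGMP GloSensor pGS-40F, loaded 2 h with 2% GloSensor reagent, given compound 30 min at room temperature. Luminescence read before and 20 min after 0.1 nM hNppA.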
Numbers without * were called inactive; ? = inconclusive; [ ] = remark or other dose. % is scaled to controls: 0 for no effect and ±100 for the full control effect; potency is read from the fitted curve at half-maximal effect. These rows are one share of the data (hit frequency here may not be typical).

SMILES	NPR1 antag
COCCNC(=O)C(C)[C@@H]1CCc2c(C)cc(OCC(=O)O)c(C)c2C1 (some centres not stated)	4.5%[70.6 µM]
CC(C)N1CCCC2(CCN(C(=O)C3(Cn4ccnc4)CC3)C2)C1=O (configuration not stated)	9.6%
CCNC(=O)CCc1c(C)nn(-c2cccc(C)c2)c1Oc1ccccc1C	-26.3%
Cc1nn2c(c1-c1ccccc1Oc1ccccc1)N(C(=O)Cc1ccc(O)cc1)CCC2	20µM*
COc1cc(CCC(=O)N2CC(c3noc(C4CCCN4C)n3)C2)on1 (configuration not stated)	-1.3%
CNc1ccc(-c2noc([C@@H]3CCCN3Cc3cccc(OC)c3)n2)cn1	-2.3%[70.6 µM]
CC1(c2cccnc2)N(CCOc2ccccc2)C(=O)OC12CCN(C(=O)Cc1cccc(F)c1)CC2 (configuration not stated)	-0.5%
COc1ccc(C(=O)N2CCCCCC2c2nc(-c3cccnc3)no2)cc1 (configuration not stated)	-18.3%
CN(Cc1ccccc1Cl)C(=O)c1coc(COc2ccc3c(c2)OCO3)n1	1.6%
CC1(C)[C@H](Cc2cc(COc3ccccc3)on2)C[C@@H]1NC(=O)c1ccnc(Cl)c1	2.2%[70.6 µM]
O=C(C1CCCO1)N1CCCC(c2ccccc2)(c2ccccc2)C1 (configuration not stated)	-17.6%
COc1ccc(C(=O)NCC23CCC=C2N(C)C(=O)CC3)cn1 (configuration not stated)	3.8%
Cc1nn(CC(=O)NCc2ccc(N(C)C)cc2)c(=O)c2nc(C(C)C)sc12	1.1%
COc1ccc2[nH]c(=O)c(CCC(=O)N(C)CCc3ccccc3)cc2c1	-12.5%
COc1ccc(OC)c(NC(=O)C2CCN(c3cnc4nccnc4c3)CC2)c1	-2.6%
Cn1ncc(N2CCC(CNC(=O)c3ccccc3-c3ncn[nH]3)C2)cc1=O (configuration not stated)	10.0%
Cc1nccc(-c2ccccc2)c1C(=O)N1CCOCC1CC(=O)N(C)C (configuration not stated)	2.6%
CCCCc1nc2cc(C(=O)N(C)Cc3ccc4nonc4c3)ccc2o1	-25.2%
O=C(c1ccccc1-c1ncc[nH]1)N1CCOC(Cc2cccc(F)c2)C1 (configuration not stated)	-2.8%
O=C(NCCc1ccccc1)N1CCN(C(=O)N2CC3CC(C2)[C@H]2CCCC(=O)N2C3)CC1 (some centres not stated)	0.9%
CCN1CCC(N[C@@H]2CC[C@@H]2NC(=O)CCCc2ccccc2)CC1	6.9%
Fc1ccc(-c2nnc3ccc(N4CCN(c5ccccn5)CC4)nn23)nc1	-1.8%[70.6 µM]
CC(C)CCC(=O)N1CCC2(CC1)N(C)C(=O)CS2(=O)=O	2.9%
COc1ccc(C(=O)N2CCCCCNC(=O)[C@@H]3CCCC[C@@H]32)cc1F	-2.2%
Cc1cc(C)n(CC(=O)N2C[C@@H](CO)[C@H](c3ccccn3)C2)n1	-2.7%

NPR1 antag: entries above that show a hit.
SMILES	NPR1 antag
Cc1nn2c(c1-c1ccccc1Oc1ccccc1)N(C(=O)Cc1ccc(O)cc1)CCC2	20µM*

In the list so far, these have a carbonyl joined to an NH by a bond outside any ring.
SMILES	NPR1 antag
COCCNC(=O)C(C)[C@@H]1CCc2c(C)cc(OCC(=O)O)c(C)c2C1 (some centres not stated)	4.5%[70.6 µM]
CCNC(=O)CCc1c(C)nn(-c2cccc(C)c2)c1Oc1ccccc1C	-26.3%
CC1(C)[C@H](Cc2cc(COc3ccccc3)on2)C[C@@H]1NC(=O)c1ccnc(Cl)c1	2.2%[70.6 µM]
COc1ccc(C(=O)NCC23CCC=C2N(C)C(=O)CC3)cn1 (configuration not stated)	3.8%
Cc1nn(CC(=O)NCc2ccc(N(C)C)cc2)c(=O)c2nc(C(C)C)sc12	1.1%
COc1ccc(OC)c(NC(=O)C2CCN(c3cnc4nccnc4c3)CC2)c1	-2.6%
Cn1ncc(N2CCC(CNC(=O)c3ccccc3-c3ncn[nH]3)C2)cc1=O (configuration not stated)	10.0%
O=C(NCCc1ccccc1)N1CCN(C(=O)N2CC3CC(C2)[C@H]2CCCC(=O)N2C3)CC1 (some centres not stated)	0.9%
CCN1CCC(N[C@@H]2CC[C@@H]2NC(=O)CCCc2ccccc2)CC1	6.9%

(continued)
SMILES	NPR1 antag
CC1(C)CC(C(=O)N2CCC3(CC2)C(=O)Nc2ccccc23)CCO1 (configuration not stated)	-0.3%
Cc1noc2nc3c(c(C(=O)N[C@H]4CC[C@H]4N)c12)CCC3	9.7%
CCn1cnnc1CC1CCN(C(=O)C2CCN(Cc3nc(-c4ccc(C)cc4)oc3C)CC2)CC1	-1.4%
CN(Cc1ccccn1)C1CCc2ccccc21 (configuration not stated)	0.0%[70.6 µM]
CCC(=O)NCc1nnc2c(-c3nc(C(C)C)no3)cccn12	-0.6%
CNC(=O)[C@@H](c1ccccc1F)N1CCC[C@H]1C(=O)NCc1ccncc1	5.1%
Cc1cc(=O)n(CC(=O)Nc2ccccc2C)c(N2CCN(c3ccccc3)CC2)n1	-3.0%
O=C(Nc1ccc(Cl)cc1)NC1CCN(c2nc3ncccc3o2)CC1	14.5%
Cc1cccc(-c2nc3cnccn3c2NCCC(=O)NCc2ccc3c(c2)OCO3)c1	6.3%
CN(C)C[C@@H]1CN(c2ccncn2)C[C@H]1NC(=O)Cc1c[nH]c2ccccc12	5.6%
Cc1cc(NC(=O)N2CCC(Oc3ncccc3C(=O)N(C)C)C2)ccc1Br (configuration not stated)	-7.3%
O=C1CCC2(CCN(C(=O)c3cnccn3)CC2)CN1CC1CCCO1 (configuration not stated)	3.1%
COc1ccc(C(=O)N2[C@@H]3CC[C@H]2CC(NC(=O)c2ccc(F)cc2)C3)c(OC)c1 (some centres not stated)	4.6%
O=C(N[C@@H]1C[C@H](Cn2cc(CN3CCS(=O)(=O)CC3)nn2)[C@@H](O)[C@H]1O)c1cncnc1	-12.9%
COc1ccc(-n2nc(C3CCCN(C(=O)Nc4ccccc4)C3)[nH]c2=O)cc1 (configuration not stated)	0.0%
COc1ccc2c(c1)CN(Cc1ccccc1Cl)CC[C@H]1COC(=O)N21	-20.0%[70.6 µM]
CC1=C[C@@H](CNCCN(C)C)[C@H](C(C)C)C[C@H]1Cc1nnc(C)o1	-2.8%[70.6 µM]
CN(c1ncccc1CNC(=O)CN1CCCC1=O)C1CCCCC1	-0.7%
CCN(CC)Cc1nc(C2(O)CCN(C(=O)C3CCC3)CC2)cs1	4.6%[70.6 µM]
CCCn1cc(C(=O)NCC2COc3cc(OC)ccc3C2)c(C)n1 (configuration not stated)	11.2µM*
CC(C)NC(=O)N1CCN(C(=O)C2CCNCC2)[C@@H](C(=O)N[C@H](Cc2c[nH]c3ccccc23)C(N)=O)C1	-1.4%
CCCCN(C)C(=O)CN1C(=O)NC2(CCC(C)CC2)C1=O (configuration not stated)	6.7%
COC(C)c1cccc(-c2cc(NC3CC3)nc(N)n2)c1 (configuration not stated)	6.8%
O=c1n(-c2ccc(F)cc2F)nc2n1CCN([S+](=O)([O-])c1ccccc1)C2	-3.1%
COc1cccc(C(=O)NCC2(COc3cnccn3)C[C@@H](O)[C@@H](O)C2)c1 (some centres not stated)	0.8%[70.6 µM]

Other results.
SMILES	NPR1 antag
CC(C)CN1CCN(C(=O)CCC[C@@H]2[C@H]3CCCN4CCC[C@@H](CN2Cc2cccnc2)[C@@H]34)CC1	2.9%
CCCC(=O)N1CCC2(CC1)SCC(=O)N2c1ccc(Cl)cc1	-5.4%
O=C(C1CCCN(c2nc(-c3ccccc3)nc3c2CCC3)C1)N1CCNCC1 (configuration not stated)	-0.1%
CC(C)(O)C#Cc1ccc(C(=O)N2CCOCC2CC(=O)NC2CC2)o1 (configuration not stated)	9.7%
Cn1nccc1C(=O)N1C[C@@H](COCC2CC2)[C@H](c2ccccn2)C1	1.1%
Cc1cc(=O)n(CC(=O)Nc2cccc(F)c2)c(-c2ccccc2)n1	-4.6%
COc1ccc(OCC(O)CN2CCC(O)CC2)c(CNCC2(O)CCCCC2)c1 (configuration not stated)	5.0%
COCCN1Cc2[nH]nc(-c3cccc(NC(C)=O)c3)c2CC1=O	-2.9%[70.6 µM]
O=C(c1cccc(Cl)c1)N1CCCN(c2nc3ncccc3o2)CC1	6.1%
CC(=O)N1CCC2(CC1)C(=O)NN=C2C1CC1	4.7%[70.6 µM]
COc1cccc(-c2n[nH]c3c2CC(=O)N(Cc2ccccc2)C3)c1OC	2.5%[70.6 µM]
COCC(=O)N1CCC(C2CCN(S(=O)(=O)c3ccccc3)C2)CC1 (configuration not stated)	4.4%
COCCC(=O)N1CCc2c(n(CCOc3ccccc3)n(-c3ccccc3)c2=O)C1	-1.4%[70.6 µM]
Cc1nc2c(c(-c3ccc(O)cc3)n1)CN(C(=O)C1CCCC1)CCC2	3.6%
COc1ncc(C(=O)N2CC[C@](C)(O)[C@@H](O)C2)nc1OC	3.9%
COc1cc(CN2CC[C@H](c3nc4ccccc4o3)C2)cc(OC)c1OC	-22.9%[70.6 µM]
O=C(c1cccc(F)c1)N1CCC2(CC1)N=C(c1ccc(Br)cc1)NO2	?
CCn1cc(CN(C)C(=O)CCc2nc(-c3ccccc3OC)no2)cn1	2.1%
COc1ccc(-c2ccc3nnc(CNC(=O)c4cccc(NC(C)=O)c4)n3n2)cc1	5.6%
O=C(NCCc1ccncc1)C1CC(=O)N(c2n[nH]c3cccc(F)c23)C1 (configuration not stated)	1.3%
CCCn1c(C)c(CC(=O)NC(C)Cn2cccn2)c2c1CC(C)(C)CC2=O (configuration not stated)	-1.9%
CCCNC(=O)C1COC2(CCC(C)CC2)N1C(=O)c1ccc(Cl)c(Cl)c1 (configuration not stated)	-15.0%
COc1ccc(NC(=O)c2cc3n(n2)CC(c2ccc(Cl)cc2)OC3)cc1OC (configuration not stated)	?
CCN(Cc1ccccc1)C(=O)CCC1CCN(S(=O)(=O)c2ccccc2)CC1	-20.7%
Cc1ccc(CC(=O)N2CCN(c3cc(-c4cccs4)[nH]n3)CC2)cc1	-21.2%

Continued.
SMILES	NPR1 antag
COc1ccc(CNC(=O)N2C[C@@H](Oc3ccccc3)C[C@@H]2C(=O)N2CCOCC2)cc1	1.4%
CC(=O)N(C)Cc1ccccc1C(F)(F)F	0.0%[70.6 µM]
CC(C)N(C)Cc1nnnn1CC(=O)N1CCC(CCn2cccn2)CC1	-2.6%
CC(C)n1cnnc1CNC(=O)[C@H]1CNC[C@H](C(=O)N2CCOCC2)C1	5.1%
COc1ccc(C(=O)N2C[C@@H](Oc3cccnc3)C[C@H]2C(N)=O)cc1	3.4%
C1CCC(COCCc2noc(C3CNC3)n2)C1	12.6µM*
CC1(c2noc(C3CC3)n2)CCN(C(=O)CNc2ccc3nnc(-c4cccnc4)n3n2)CC1	-15.9%
O=C(c1ccccc1Cl)N1CCCN(c2nc3ncccc3o2)CC1	6.6%
Cc1cc(C(=O)N2CCc3c(nc[nH]c3=O)C2)c2cc(Cl)ccc2n1	-2.7%
OC1(CN2CCN(Cc3cccc(Cl)c3)CC2)CCCNC1 (configuration not stated)	3.4%
Cc1cccc(-c2noc([C@@H]3Cc4nc[nH]c4CN3C(=O)c3ccc(F)cc3)n2)c1	-7.6%[70.6 µM]
CC1=NS(=O)(=O)N(C)C=C1C(=O)OCc1nc(-c2ccc(Br)cc2)no1	10µM*
CCC(C)Nc1ccc2nncn2n1 (configuration not stated)	3.2%
O=C1Nc2ccccc2CC12CCN2[S+](=O)([O-])c1cccs1 (configuration not stated)	0.0%[70.6 µM]
Cc1ccc(-n2cccc2CC(=O)N2CCOCC2)cc1	-0.2%
CCC1=C(C(=O)OC)C(c2ccccc2)N2C(CC(=O)NCCc3cccs3)=CSC2=N1 (configuration not stated)	-19.9%
O=S(=O)(c1ccc(Cl)cc1)N1CCOC[C@H](Oc2ccc(C(F)(F)F)cc2)C1	-23.7%
COc1ccc(CCc2nc3nccc(-c4ccc(OC)c(OC)c4)n3n2)cc1OC	-1.7%
COc1cccc(CN2CCCCCCN(C)C(=O)[C@@H]3CCC[C@@H]32)n1	-11.5%
c1ccc(-c2cn([C@H]3CO[C@H]4[C@@H]3OC[C@@H]4NCC3CCCCC3)nn2)nc1	?
CS(=O)(=O)N1CCC(N2C(=O)C(OCC3CC3)C23CCCCC3)CC1 (configuration not stated)	4.4%
CCOCCCNC(=O)[C@H]1CCC[C@H]1NC(=O)c1ccc(OC)nc1	0.5%
CCCN(CC1CCOC1)S(=O)(=O)c1ccc(C(C)C)cc1 (configuration not stated)	3.4%
NC(=O)COc1ccccc1OC[C@@H]1CCCN2CCCC[C@H]12	4.8%
Cc1ccc(NC(=O)N2CCC(CCNC(=O)CCCc3ccccc3)CC2)cc1F	-6.3%

(cont.)
SMILES	NPR1 antag
CCN(Cc1ccccc1)C(=O)c1cc(COc2ccccc2)[nH]n1	5.4%
O=C(CC1C(=O)NCCN1CC(c1ccccc1)c1ccccc1)NCc1ccco1 (configuration not stated)	2.7%
O=C1CCCCC(C(=O)NCc2cc(F)ccc2F)N1 (configuration not stated)	3.7%
Cc1cn2nc(C(=O)NCc3ccncc3)cc2c(N2CCSCC2)n1	4.6%
CC(C)c1noc(C2CCCN(Cc3cc(=O)c4cccc(F)c4[nH]3)C2)n1 (configuration not stated)	2.1%
COCCN1CCCCCC(O)c2cc(C(=O)N3CCN(C(C)C)CC3)ccc21 (configuration not stated)	6.6%
Cc1ccccc1C(=O)Nc1ccc([C@H]2OCC(=O)N(C)[C@@H]2CO)cc1	4.0%[70.6 µM]
C=CCO[C@@H]1CCN2C(=O)c3cc(-c4ccc(OC)cc4)ccc3NC(=O)[C@H]12	-6.2%[70.6 µM]
COc1ccc(CNC(=O)[C@@H]2C[C@@H](c3ccc(F)cc3)N(Cc3ccccc3)C2)cc1OC	-13.6%
CC[C@@H](NC(=O)CC1CCN(Cc2ccccc2)CC1)C1CC(O)C1 (some centres not stated)	19.6%
CCCNC(=O)N1CCCC1c1nc(CCOCC2CC2)no1 (configuration not stated)	-3.4%
